# Assay outcomes: PubChem, National Center for Advancing Translational Sciences (NCATS)
# Six1-Eya2 inh: qHTS Assay for Inhibitors of the Six1/Eya2 Interaction; AlphaScreen GST-Six1/His-Eya2 binding, biochemical; hits give low values; control for the full effect not named in the record; activity change, % (concentration not given with the values); 360,000 compounds, 0.56% hits; in the data active = activity change below about -65%; inconclusive = about -30% to -65%; inactive = above about -30%; further: on the % scale 0 is the no-effect control and ±100 the full control effect
# Target sequence (O00167 whole entry, looked up): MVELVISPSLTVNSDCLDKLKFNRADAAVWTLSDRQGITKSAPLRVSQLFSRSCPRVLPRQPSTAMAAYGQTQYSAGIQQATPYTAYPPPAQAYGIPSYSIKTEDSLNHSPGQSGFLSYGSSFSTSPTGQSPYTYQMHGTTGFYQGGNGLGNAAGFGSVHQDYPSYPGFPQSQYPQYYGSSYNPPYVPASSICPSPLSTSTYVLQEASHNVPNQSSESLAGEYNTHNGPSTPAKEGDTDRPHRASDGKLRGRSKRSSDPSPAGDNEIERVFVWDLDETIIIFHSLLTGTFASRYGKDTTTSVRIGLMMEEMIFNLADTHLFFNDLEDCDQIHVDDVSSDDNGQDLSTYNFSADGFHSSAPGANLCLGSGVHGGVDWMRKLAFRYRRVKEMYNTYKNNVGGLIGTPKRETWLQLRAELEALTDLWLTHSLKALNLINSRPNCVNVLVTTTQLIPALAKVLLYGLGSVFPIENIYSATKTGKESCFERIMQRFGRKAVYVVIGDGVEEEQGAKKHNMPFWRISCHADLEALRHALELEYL
# Target sequence (Q15475 whole entry, looked up): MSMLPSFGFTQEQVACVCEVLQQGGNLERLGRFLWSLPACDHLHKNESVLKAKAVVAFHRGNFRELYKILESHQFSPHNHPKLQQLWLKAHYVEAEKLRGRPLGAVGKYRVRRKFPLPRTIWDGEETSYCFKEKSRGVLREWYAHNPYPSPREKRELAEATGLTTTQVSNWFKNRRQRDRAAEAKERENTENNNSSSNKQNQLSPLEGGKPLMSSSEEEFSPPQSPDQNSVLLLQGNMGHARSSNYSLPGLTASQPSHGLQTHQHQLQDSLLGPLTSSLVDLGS
#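 AlphaScreen with GST-Six1 and His-Eya2 (5X mix: 250 nM and 500 nM), glutathione donor and nickel acceptor beads; buffer 50 mM Tris pH 8.0, 300 mM NaCl, 1 mM TCEP; 1 h at 37 C in the dark.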
# CtBP-E1A blk: qHTS Assay for Inhibitors of the CtBP/E1A Interaction; CtBP / adenovirus E1A interaction (AlphaScreen); AlphaScreen GST-E1A/His-CtBP binding, 1536-well; hits give low values; control for the full effect not named in the record; activity change, % (test concentration not listed); 340,000 compounds, 0.49% hits; AID 651724, 2012; in the data active means activity change below about -65%; inconclusive means about -30% to -65%; inactive means above about -30%; further: on the % scale 0 is the no-effect control and ±100 the full control effect
#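 In 5 uL wells, 23 nL compound meets equimolar GST-E1A and His-CtBP (5X stock 125 nM each) for 2 h, 37 °C. Beads (5X, 50 ug/mL) then 1 h, 37 °C, dark.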
# D2 potentiator: Beta-Arrestin HTS for Positive Allosteric Modulators of the Human D2 Dopamine Receptor: Potentiators. D(2) dopamine receptor (Homo sapiens), P14416. DiscoveRx D2 beta-arrestin cells, luminescence, 90 min; 100% = 57 uM dopamine signal. potentiation, % (test concentration not listed). 360,000 compounds, 0.23% hits; active = potentiation of 50% or more; inconclusive = 30% to 50%; inactive = 30% or less;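 further: compound concentration not given in the record; tested on top of an EC20 dose of dopamine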
#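 PathHunter beta-arrestin assay in DiscoveRx D2 cells. Compounds were added with an EC20 of dopamine (50 nM final) for 90 min at 37 deg C. Luminescence was read 1 h after detection reagent, with 57 uM dopamine as the EC100 control.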
# TRPML1 ag: qHTS for Agonists of the Human Mucolipin Transient Receptor Potential 1 (TRPML1). Mucolipin-1 (Homo sapiens), Q9GZU1. TRPML1-expressing cells, Ca2+ dye fluorescence, FDSS; host cell line not named in the record; reference of the full effect not given here. activation, % (no concentration beside the values). 410,000 compounds, 0.12% hits. AID 624414, 2012; in the data active = activation above about 50%; inconclusive = about 30% to 50%; inactive = below about 30%; further: 0% is about no effect; the text of the record puts the active cut at 80%
#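 Tet-induced TRPML1-DL cells, 1,500 per well, cultured overnight, were loaded with a no-wash Ca2+ dye for 45–90 min. Calcium fluorescence was recorded on the FDSS for 110 s after compound addition, before the EC80 agonist (4 uM 54-4) was added.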
# PINK1 modulator: A Quantitative High throughput Screen to Identify Chemical Modulators of PINK1 Expression; PINK1 immunofluorescence, high-content cytometry, 24 h; Potency, µM (top dose mostly 76.6 µM), for inactives: top-dose activation (PINK1 increase), usual class: activators; 410,000 compounds, 0.2% hits; active = well fitted activation curve with a large enough effect; inconclusive = small, poorly fitted or top-dose-only effect; inactive = flat fitted curve, though single readings scatter; cell line not stated here;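 further: potency means the concentration at half of the fitted maximal effect; % of control where 0% means no effect; nearly all actives have a fitted effect of over 65% in size; a mitochondrial uncoupler was the plate control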
#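 PINK1 protein, normally rapidly degraded, was detected by immunofluorescence after 24 hour compound treatment of a stable cell line. Titration data (5 concentrations) came from laser-scanning cytometry, with CCCP-treated wells as controls.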
# D2 agonist: Beta-Arrestin HTS for Positive Allosteric Modulators of the Human D2 Dopamine Receptor: Agonists; D(2) dopamine receptor (Homo sapiens), P14416; DiscoveRx PathHunter D2 beta-arrestin, luminescence, 90 min; 100% = 57 uM dopamine signal; activation, % (concentration not given with the values); 360,000 compounds, 0.084% hits; in the data active = activation above about 40%; inconclusive = about 15% to 40%; inactive = below about 15%; further: the text of the record calls up to 30% inactive
#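 Agonist mode: compounds alone added to overnight-plated D2 PathHunter cells for 90 min at 37 C, with 57 uM final dopamine (EC100) defining full response. Beta-arrestin recruitment detected by chemiluminescent reagent, read after 1 h at ambient temperature.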
# The depositor's hits bear a star; ? = inconclusive; . = not tested or not shown; [ ] = another dose, or the depositor's remark.
SMILES,Six1-Eya2 inh,CtBP-E1A blk,D2 potentiator,TRPML1 ag,PINK1 modulator,D2 agonist
Cc1ccccc1-c1cc2nc(NCCOc3ccccc3)n(C)c(=O)c2s1,-1.8,5.2,-3.3,-0.6,8.4%,-5.0
CC1CN(c2ccc([N+](=O)[O-])cc2C(=O)N2CCOCC2)CC(C)N1 (stereo unspecified),-1.4,3.7,-13.0,-0.3,8.1%,-1.6
COc1ccc(N(C)S(=O)(=O)c2ccc3c(c2)CCN3C(=O)C2CC2)c(OC)c1,0.6,.,3.5,1.3,5.6%,1.1
O=C(O)CC(c1cccc2ccccc12)N1Cc2ccccc2C1=O (stereo unspecified),-3.3,-1.6,-2.7,0.4,-0.1%,-2.1
CC(=O)N1CCc2c(sc(NC(=O)C3CCCN3S(=O)(=O)c3cccs3)c2C#N)C1 (stereo unspecified),-1.0,8.1,-2.2,0.2,24.8%,0.1
Cc1nn(C)cc1C1Nc2ccccc2C(=O)N1O (stereo unspecified),4.7,-1.2,4.4,-0.5,2.8%,-3.5
Cc1ccnc(NS(=O)(=O)c2ccc(NC(=O)c3ccc(C)o3)cc2)n1,0.0,-1.4,-5.2,-0.6,0.6%,-5.5
COCC(=O)Nc1nc2ccccc2s1,-1.2,-0.2,-8.1,-0.3,-0.4%,-2.1
Cc1nc2ccccc2c(=O)n1/N=C/c1ccc(O)cc1,2.2,3.6,-13.3,-0.2,.,-1.6
CCOc1cc(N2CCOCC2)c(OCC)cc1NC(=O)C(NC(=O)c1c(F)cccc1F)C(C)C (stereo unspecified),3.2,.,1.3,-0.1,9.1%,4.8
COc1cc(C(=S)N2CCCC2)cc(OC)c1OS(=O)(=O)c1ccc(NC(C)=O)cc1,-21.1,-11.6,-14.3,0.3,-1.7%,-4.4
CCOc1cc(N2CCOCC2)c(OCC)cc1NC(=O)c1c(-c2ccccc2)noc1C,-28.1,?,-4.4,0.4,-0.2%,-3.1
COCCn1c(SCC(=O)NNC(=O)c2ccccc2)nc2ccccc2c1=O,2.9,1.4,-17.6,0.2,0.7%,0.7
Cc1ccc(CN(C)CC(=O)Nc2ccc3c(c2)CCC3)cc1,5.8,15.9,-12.3,3.0,?,0.3
CC(C)C(C)NC(=O)COC(=O)/C=C/c1ccc(S(=O)(=O)N2CCc3ccccc32)cc1 (stereo unspecified),8.4,5.8,-4.6,1.2,-0.6%,-4.2
COc1ccc(CN2CCN(Cc3cccc(Oc4ccccc4)c3)CC2)c(OC)c1OC,-8.5,13.2,-16.9,2.8,?,-2.2
O=C(O)c1ccccc1N/N=C/c1cc(Br)cc(Br)c1O,12.6,-0.7,1.1,1.5,-2.0%,-1.2
O=C(NCc1ccc2c(c1)OCO2)Nc1ccc(F)cc1,-4.7,22.3,-11.3,0.7,1.0%,-5.7
CCOC1CCCCC1NS(=O)(=O)c1ccc(Cl)cc1 (stereo unspecified),-0.8,-9.5,-0.4,-0.4,.,0.9
Cc1cccc(N2CCN(C(=O)NC3CCCCC3)CC2)c1C,2.4,-2.8,-3.6,2.1,-0.1%,-3.4
COc1ccc(NC(=O)N(C)C[C@H]2Oc3ccc(NC(=O)C4CC4)cc3CC(=O)N([C@@H](C)CO)C[C@@H]2C)cc1,7.0,8.9,-5.6,-0.3,-1.0%,-4.1
CCC(C)N(C(=O)Cn1nnc2ccccc21)C(C(=O)Nc1ccc(F)cc1)c1cccc(OC)c1 (stereo unspecified),-1.4,4.1,0.6,0.9,4.2%[38.3 µM],-0.2
Cc1nn2c(NCc3ccccn3)c3c(nc2c1-c1ccccc1)CCC3,-4.6,-9.4,-12.0,1.0,3.8%,-6.0
CCC(=O)N1C(C(=O)NCc2ccc(OC)cc2)CSC1c1ccc(OC)cc1 (stereo unspecified),3.0,-1.4,-7.7,0.1,0.5%,-1.9
O=C(c1ccccc1)N1CCN(C2CC(=O)N(CCc3ccccc3)C2=O)CC1 (stereo unspecified),-0.5,-6.6,-8.6,0.6,-1.2%[38.3 µM],-3.5
CC(C)n1c(C(O)c2ccc3c(c2)OCO3)nc2ccccc21 (stereo unspecified),-0.9,3.6,1.6,2.3,?,0.1
Cc1cccc(OCCSc2nncn2C)c1,-0.5,7.3,14.5,-0.9,0.9%,-2.3
O=C(O)Cc1csc(-c2cccc(F)c2)n1,14.0,3.8,-5.3,0.2,4.5%,-2.3
CCN(CC(=O)Nc1ccc(NC(C)=O)cc1)C(=O)c1oc2c(ccc3ccccc32)c1C,-11.6,0.9,-4.8,0.0,6.2%,1.4
O=C(OCc1ccccc1)N1C[C@H](O)[C@H](O)C[C@@H]1c1c(Cl)cccc1Br,8.2,0.9,-6.7,-0.3,-0.4%,-2.8
CC(=O)Nc1sc(N/N=C\c2ccc(O)cc2)nc1-c1cccs1,-3.3,-9.6,14.0,0.2,0.9%,6.7
CC(=O)Nc1ccc(Sc2ncccc2C(=O)Nc2ccc(F)cc2)cn1,2.5,0.4,-4.0,?,0.4%[38.3 µM],0.0
Cc1cc(C(=O)COC(=O)c2ccc(O)cc2O)c(C)n1C(C)C,-15.1,.,5.1,1.3,1.0%,0.7
CS(=O)(=O)NCc1nnc(SCc2ccc(C(F)(F)F)cc2)o1,-3.6,1.2,-2.6,0.8,0.6%,-0.1
O=C(CSc1nnc(-c2cnccn2)n1Cc1ccco1)Nc1ccc(Br)cc1,0.4,-2.9,-19.3,0.9,-1.7%,-1.5
COc1ccc(-c2csc(Nc3ccccn3)n2)cc1,-5.3,2.4,-5.6,-0.8,6.0%,2.5
CCC(C)NC(=O)c1[nH]c(C)c(C(=O)OC)c1C (stereo unspecified),4.1,1.3,-13.2,1.9,-1.5%,2.0
Cc1oc2cc3oc(=O)c(CC(=O)N[C@@H](C)C(=O)NC(Cc4ccc(Cl)cc4)C(=O)O)c(C)c3cc2c1C (stereo partly specified),?,-9.7,7.3,.,1.3%,4.5
COc1cccc(N2CC(C(=O)Nc3nnc(SCc4ccccn4)s3)CC2=O)c1 (stereo unspecified),-12.5,-10.9,-12.3,-0.1,3.7%,1.6
COc1ccc2cc(C3=CCCC3(C)C(=O)O)ccc2c1 (stereo unspecified),4.9,6.1,-2.5,0.1,0.9%,0.6
Cc1cc(C)n(C(=O)CNC(=O)c2ccccc2F)n1,-4.3,-19.8,-5.5,-0.6,1.7%,-5.4
Cc1sccc1/C=N/NC(=O)c1cccc2ccccc12,-1.8,4.5,-20.6,-0.5,15.7%,-4.4
Cc1c(Cl)cccc1NC(=O)CNc1cccc(C(F)(F)F)c1,-10.9,-17.0,-15.3,0.5,2.6%,-1.0
COc1ccc(CC(=O)OCN2C(=O)c3ccccc3C2=O)cc1OC,-0.3,1.7,-5.7,0.8,0.0%,-0.9
Cc1cc(S(=O)(=O)Nc2c(C(=O)O)[nH]c3ccccc23)ccc1F,1.7,4.4,-3.3,-0.4,-0.8%,0.0
COc1cc(/C=C2\SC(=S)N(CC(=O)Nc3cccnc3)C2=O)cc(OC)c1OC,-19.5,-13.2,-2.8,2.0,0.5%,2.0
COc1ccc(S(=O)(=O)N2CCN(C(=O)CN3C(=O)NC4(CCCC4)C3=O)CC2)cc1,-2.6,3.1,2.3,-0.4,-0.1%,-1.4
Cn1c2ccccc2c(=O)c2ccc(Cl)cc21,6.8,3.8,-10.8,-0.8,0.4%,-6.7

# Full records from above:
# Results for Cn1c2ccccc2c(=O)c2ccc(Cl)cc21 : Six1-Eya2 inh: 6.8; CtBP-E1A blk: 3.8; D2 potentiator: -10.8; TRPML1 ag: -0.8; PINK1 modulator: 0.4%; D2 agonist: -6.7
# Results for COc1cccc(N2CC(C(=O)Nc3nnc(SCc4ccccn4)s3)CC2=O)c1 (stereo unspecified) : Six1-Eya2 inh: -12.5; CtBP-E1A blk: -10.9; D2 potentiator: -12.3; TRPML1 ag: -0.1; PINK1 modulator: 3.7%; D2 agonist: 1.6

# New compounds follow.
SMILES,Six1-Eya2 inh,CtBP-E1A blk,D2 potentiator,TRPML1 ag,PINK1 modulator,D2 agonist
O=C(NCC1CCCO1)C(c1cccnc1)N(C(=O)Cc1cccs1)c1ccccc1 (stereo unspecified),-1.0,-0.2,-11.9,0.5,1.7%[38.3 µM],2.4
COc1ccc2nnc(-c3ccccc3)n2n1,-0.6,-6.1,-7.9,2.0,-1.5%,-1.1
CCOc1ccc(NC(=O)C2=C(C)NC(=S)NC2c2ccc(O)c(OC)c2)cc1 (stereo unspecified),-4.4,4.3,-8.9,-0.4,-0.4%,0.0
C[C@H]1COC(=O)[C@H](CC(=O)OC(C)(C)C)C/C=C\C[C@H](CC(=O)N(CCO)Cc2ccccc2)C(=O)N1,0.5,10.4,-2.8,-0.2,-0.8%,3.1
Cn1c(=O)c2c(nc(-n3ccnc3)n2C)n(C)c1=O,-4.4,-1.7,-4.9,0.1,-1.0%,-1.3
COc1cc(OC)cc(C(=O)O/N=C(\N)c2ccncc2)c1,-1.0,-3.3,110.8*,0.1,2.3%,?
O=C(COC(=O)/C=C/c1ccccc1[N+](=O)[O-])NCC1CCCO1 (stereo unspecified),-1.6,3.3,-5.7,-0.1,0.1%,-1.5
O=C(NCc1ccc(F)cc1)C(C(=O)NCc1ccc(F)cc1)c1ncc(C(F)(F)F)cc1Cl,-0.6,-7.0,-20.3,0.1,9.6%,-0.6
COC(=O)c1ccc(-c2nc(CN3CCN(Cc4cccc(C)c4)CC3)c(C)o2)cc1,-5.6,.,9.3,.,8.3%,0.4
Cc1cc(C)cc(OC2CCCCC2NS(=O)(=O)c2ccccc2)c1 (stereo unspecified),-3.1,.,-9.5,3.1,24.1%,-4.4
O=C(Nc1nc2ccc(F)cc2s1)C1CCN(S(=O)(=O)c2cc([N+](=O)[O-])ccc2Cl)CC1,-25.9,-7.0,?,-0.4,2.3%,10.6
Cc1ccc(-n2c(SCC(N)=O)nnc2-c2cccnc2)c(C)c1,-1.0,1.4,-27.6,-0.2,1.3%,-5.1
COC(=O)C(CC(=O)Nc1cc(C)ccc1C)Nc1ccccc1OC (stereo unspecified),19.6,0.0,-26.2,1.1,0.2%,-4.0
C=C(C)CNC(=S)N/N=C(\C)c1ccc(-n2ccnc2)cc1,-19.1,-5.0,22.8,-0.4,3.7%,1.2
COc1ccc(-c2cc3onc(-c4c(Cl)cccc4Cl)c3c(=O)n2C)cc1,-4.3,-7.0,-4.5,1.1,-0.4%,-3.0
O=C(c1cccc(S(=O)(=O)NCc2ccccc2)c1)N1CCN(c2cccc(C(F)(F)F)c2)CC1,-0.6,1.6,-2.6,0.2,-0.4%,-2.4
C=CCSc1nc(N)c(NC(=O)c2ccco2)c(=O)[nH]1,6.9,-21.8,-7.4,-0.2,0.6%,-3.9

# Outcome played no part in choosing rows, and some 1.3% of all compounds hit somewhere here.
